Screening data deposited in PubChem BioAssay by National Center for Advancing Translational Sciences (NCATS).
TsaE inh – displaces an ADP probe from E. coli YjeE (TsaE); P0AF67; purified YjeE, fluorescence polarisation of a bound ADP probe; Potency, µM; 71,000 tested, 0.05% active; AID 605; active = well fitted falling curve; inconclusive = weaker or top-dose-only fall, or a rising curve; inactive = flat or poorly fitted curve;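 note: top concentration of the series not given in the record; excess ADP was the control for the full effect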
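Purified YjeE (10 uM) with BODIPY Texas Red-labeled ADP probe (2 uM); compounds pin-transferred, 15 min at room temperature. Binding inhibition read as decreased fluorescence polarization; ADP titration as control.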
Bst PK mod – alters activity of Bacillus stearothermophilus pyruvate kinase; partly purified Bacillus stearothermophilus pyruvate kinase, luminescence ATP production; ribose 5-phosphate activator present at AC10; Potency, µM; 51,000 tested, 1.2% active; AID 361; in the data active means potency below about 11 µM; inconclusive means mostly about 12 µM to 25 µM; inactive means weaker than that;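 the screen sought inhibitors and activators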;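 note: potency is the fitted concentration of half-maximal effect; scaled between full activation by ribose 5 phosphate and full inhibition by luteolin; about four in five hits inhibit and the cells do not say which; series up to 57 µM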
Active calls of the source: *; i = inactive; u = inconclusive; x = no result given.

The opening 3 compounds, to show the layout:
item	structure	Bst PK mod	TsaE inh
1	COC(=O)[C@@]1(Cc2ccc(OC)cc2)[C@H]2c3cc(C(=O)N(C)C)n(Cc4ccsc4Br)c3C[C@H]2CN1C(=O)c1ccccc1	x	i
2	CSc1nc(C)c(Cl)c(C)c1C#N	>57	i
3	CC(C)CN(CC#N)CC(C)C	x	i

This part in full (from the top)
item	structure	Bst PK mod	TsaE inh
1	COC(=O)[C@@]1(Cc2ccc(OC)cc2)[C@H]2c3cc(C(=O)N(C)C)n(Cc4ccsc4Br)c3C[C@H]2CN1C(=O)c1ccccc1	x	i
2	CSc1nc(C)c(Cl)c(C)c1C#N	>57	i
3	CC(C)CN(CC#N)CC(C)C	x	i
4	O=C(NCCCn1ccnc1)c1cc(C2CC2)on1	x	i
5	O=C(NCC(c1cccnc1)N1CCOCC1)c1cccs1 (stereo not drawn)	>57	i
6	COc1cccc(-n2c(SCC(=O)Nc3cc(C)on3)nc3ccccc3c2=O)c1	>57	i
7	CC(C)CCNC(=O)CCn1nc(-c2ccccc2)ccc1=O	>57	i
8	C(/C=C\c1ccccc1)=Nc1ccc2c(c1)Cc1ccccc1-2	x	i
9	Cc1ccc(NC(=O)C2CCCN2C(=O)Oc2ccccc2)cc1 (stereo not drawn)	>57	i
10	C[C@@H](CN(C)C)CN1c2ccccc2Sc2ccccc21	x	i
11	COc1cc(OC)c(NC(=O)Nc2ccc(OC)c(OC)c2)cc1Cl	>11.4	i
12	COc1ccc(-c2noc(COc3ccc4ccccc4c3Br)n2)cc1OC	>57	i
13	Cc1nc2ccccn2c1C(=O)NC1CCCCC1	x	i
14	COc1ccc(NC(=O)CSc2nnc(Cn3c(=O)sc4ccccc43)n2C)c(OC)c1	x	i
15	CC(C)OCCCNC(=O)c1ccc(NC(=O)C2CCCO2)cc1 (stereo not drawn)	>57	i
16	FC(F)(F)c1ccccc1-c1cc(NCCN2CCOCC2)ncn1	x	i
17	Cc1cccc2cc3c(NC(=O)C(C)C)nn(C)c3nc12	>57	i
18	Cc1[nH]n2c(=O)cc(C(C)(C)C)nc2c1-c1ccccc1	>57	i
19	COc1cc(CN2CCN(S(=O)(=O)c3ccc(NC(C)=O)cc3)CC2)cc(OC)c1O	>57	i
20	CCC(C)(C)NC(=O)C(c1cccn1C)N(C(=O)Cn1nnc2ccccc21)c1ccc(OC)cc1 (stereo not drawn)	>57	i
21	Cc1nn2c3ccccc3nc2n(Cc2ccccc2)c1=O	>57	i
22	Cc1cc(F)ccc1NCc1ccncc1	x	i
23	CCOC(=O)CCNC(=O)c1ccccc1Br	>57	i
24	Cc1ccc(NC(=O)CN(C)C(=O)CN2C(=O)NC(C)(c3ccccc3)C2=O)cc1 (stereo not drawn)	>57	i
25	COC(=O)Cc1c(C)nc2nc(-c3ccccc3)[nH]n2c1=O	x	i

The list goes on:
item	structure	Bst PK mod	TsaE inh
26	O=C(COC(=O)c1ccccc1O)Nc1ccc(OC(F)F)cc1	>57	i
27	O=C(Cn1c(=O)[nH]n(-c2ccccc2)c1=O)N1CCCc2ccccc21	>57	i
28	CC(=O)N[C@@H](c1ccccc1)[C@]1(C)C[C@H]1[C@@H](C)C(=O)Nc1ccc2ccccc2c1	x	i
29	CCOC(=O)N1CCN(C(=O)CSc2nnc(-c3cccc(Cl)c3)o2)CC1	x	i
30	COc1cc(C2N(c3cccc(Cl)c3)C(=O)C3CCCN32)cc(OC)c1OC (stereo not drawn)	x	i
31	COc1ccc(-c2cc3ccccc3n2CC(O)CNC(CO)(CO)CO)cc1 (stereo not drawn)	>11.4	i
32	CC(C)NC(=O)N1CCCC2(CCN(C(=O)c3cccn3C)CC2)C1	x	i
33	O=C(CCCN1CCC(O)(c2cccc(C(F)(F)F)c2)CC1)c1ccc(F)cc1	x	i
34	Cc1ccc(-n2c(SCC3CCCCO3)nnc2-c2ccco2)cc1 (stereo not drawn)	>57	i
35	CS(=O)(=O)N1CCC(C(=O)Nc2c(F)cccc2F)CC1	>57	i
36	CCCCC	x	i
37	COc1ccc(OC)c(CNC(=O)C2CCCN(c3nc4ccccc4o3)C2)c1 (stereo not drawn)	>57	i
38	CCC(=O)Nc1cccc(NC(=O)CSc2nnnn2C)c1	>57	i
39	CCC(NC(=O)c1ccccc1O)c1ccccc1 (stereo not drawn)	>57	i
40	Cn1c(=O)n(C)c2cc(NC(=O)CSc3nnc(-c4ccccc4O)n3-c3ccccc3)ccc21	>57	i
41	Cc1ccc(Cl)cc1N1CCN(S(=O)(=O)c2c(C)[nH]c(=O)[nH]c2=O)CC1	>57	i
42	N#C/C(=C(\O)c1ccco1)c1ccccn1	x	i
43	O=S1CCCSC1c1cccnc1 (stereo not drawn)	>25.6	x
44	CC(=O)Nc1cc2nn(-c3ccccc3)nc2cc1Cl	i	i
45	C[C@H](NC(=O)/C(C#N)=C/c1ccc(O)c(O)c1)c1ccccc1	x	i
46	N=C(N)SCc1cccc2c(=O)cc(-c3ccccc3)oc12	x	i
47	O=C(c1ccncc1)N1CCC2(CC1)CN(Cc1cc(C(F)(F)F)cc(C(F)(F)F)c1)C2	x	i
48	CSc1nnc(NC(=O)C2CCCCC2)s1	x	i
49	Cn1nc(CC(=O)Nc2ccc3c(c2)CCC3)c2ccccc2c1=O	>57	i
50	O=C(CN(Cc1ccco1)C(=O)CNS(=O)(=O)c1ccc(Cl)cc1)NCc1ccc(F)cc1	>57	i

Next part:
item	structure	Bst PK mod	TsaE inh
51	O=C(O)CCCC(=O)Nc1cccc2cccnc12	x	i
52	COC1=C(OC)C(=O)c2ccccc2C1=O	x	i
53	COc1cccc(C2c3c(oc4ccc(F)cc4c3=O)C(=O)N2CCCN2CCOCC2)c1 (stereo not drawn)	x	i
54	CCCCc1ccc(NC(=O)COCC)cc1	x	i
55	CCOC(=O)c1c(CN(C)C)n(C)c2ccc(OC(C)=O)cc12	>57	i
56	Cc1ccccc1NC(=O)c1ocnc1C	x	i
57	Cc1cc(C)nc(NC(=O)CCCC(=O)O)c1	>57	i
58	COc1ccc(NC(=O)c2cccnc2)c(OC)c1	x	i
59	O=C(O)C1CCCN1C(=O)c1cncc(Br)c1 (stereo not drawn)	x	i
60	CC(C)CCSc1nc(N2CCOCC2)c2c(c1C#N)CC(C)(C)OC2	x	i
61	CC(=NCC(=O)O)c1ccccc1	x	i
62	O=C(Nc1scc(-c2ccc(F)cc2)c1C(=O)O)c1ccco1	i	i
63	CC(=O)Nc1nc(C)c(Oc2ccccc2)c(=O)[nH]1	>57	i
64	O=C(CCN1CCCC1)Nc1cccc(Br)c1	>57	i
65	CCn1c2ccccc2c2nnc(SCC(=O)c3ccccc3)nc21	x	i
66	Cc1ccccc1-c1noc(-c2ccccc2C(=O)N2CCCC2)n1	>57	i
67	CC(C)(C)NC(=O)Cn1nnc(-c2ccc(S(C)(=O)=O)cc2)n1	>57	i
68	Cc1ccc(C2C(C#N)=C(N)Oc3c2sc2ccccc32)o1 (stereo not drawn)	x	i
69	C/C(Cl)=C/Cn1c(N2CCCC2)nc2c1c(=O)n(C)c(=O)n2C	>57	i
70	Cc1ccc(F)cc1NC(=O)c1cccc(N(C)C)c1	>57	i
71	COCCOCCOCCC(=O)NC1CC2CCC1(C)C2(C)C (stereo not drawn)	>25.6	x
72	CCCn1c(SCC(=O)O)nc2ccccc21	>57	i
73	Cc1coc2c(O)cc3c(c12)OC1(N2CCCCC2)C(=O)NCCCC31 (stereo not drawn)	i	x
74	Cc1nn(C)c(C)c1Sc1ccc(Br)cc1	x	i
75	O=C(Nc1cccc(F)c1)Nc1ccccn1	x	i

Rewritten screen by screen: 2 of the compounds above.
(51) O=C(O)CCCC(=O)Nc1cccc2cccnc12
(75) O=C(Nc1cccc(F)c1)Nc1ccccn1
assay / compound | 51 | 75
Bst PK mod | x | x
TsaE inh | i | i

The list continues:
item	structure	Bst PK mod	TsaE inh
76	COc1ccc(C(=O)N(Cc2ccc(N(C)C)cc2)C2CCS(=O)(=O)C2)cc1 (stereo not drawn)	>57	i
77	CCOC(=O)N1CCN(Cc2ccccn2)CC1	>57	i
78	CCCCn1c(SCC(=O)Nc2cc(C)on2)nnc1-c1cccnc1	>57	i
79	CCCC(c1nnnn1Cc1ccccc1)N1CCN(c2ccccc2OC)CC1 (stereo not drawn)	>57	i
80	COC(=O)[C@@]1(Cc2ccccc2)[C@H]2c3cc(C(=O)N(C)C)n(Cc4c(CO)[nH]cc(C)c4=O)c3C[C@H]2CN1C(=O)c1ccccc1	x	i
81	Cn1nc(-c2ccc(Cl)cc2)c2cc(C(=O)NCCN3CCOCC3)sc21	x	i
82	COc1cc2c(=O)n(CC3CCCO3)c(=O)n(CC(=O)Nc3ccc(F)cc3F)c2cc1OC (stereo not drawn)	x	i
83	Cc1occc1C(=O)NC1CCCc2ccccc21 (stereo not drawn)	>57	i
84	COC(=O)C1=C(C)N=c2s/c(=C3\C(=O)Nc4ccccc43)c(=O)n2C1c1ccccc1 (stereo not drawn)	x	i
85	Cc1ccc(Nc2ncnc3nc[nH]c23)cc1Cl	x	i
86	CCN1C(=O)c2cccc3c(S(=O)(=O)Nc4ccccn4)ccc1c23	>57	i
87	CCOc1cc(/C=N/n2cnnc2)cc(Br)c1O	>57	i
88	O=c1ccccn1Cc1ccccc1F	>57	i
89	O=C(Nc1cccnc1N1CCOCC1)c1ccco1	>57	i
90	COc1ccc2[nH]cc(CCNc3nc(-c4ccc(N(C)C)cc4)nc4ccccc34)c2c1	x	i
91	CC1(C)CC(=O)c2cc(OCC(=O)NCc3cccnc3)ccc2O1	>57	i
92	CCOC(=O)c1c(C)[nH]c(C(=O)COc2ccc3c(c2)OCO3)c1C	>57	i
93	Cc1ccc(CNc2ccc(N3CCOCC3)cc2)s1	i	i
94	O=C(c1cc2c(=O)oc3ccccc3c2s1)N1CCN(c2ncccn2)CC1	>57	i
95	COc1cc(CNc2cccc(F)c2)cc(Br)c1O	x	i
96	COc1ccc(CN(Cc2nc3ccccc3c(=O)[nH]2)C(=O)NC2CCCCC2)cc1	>57	i
97	O=C(CN1CCN(C(=O)N2CCOCC2)CC1)Nc1ccc(Br)cc1	>57	i
98	COc1ccc(NC(=O)c2ccco2)cc1NC(=O)c1ccc(C)cc1	>57	i
99	COc1ccccc1CNc1ncncc1-c1ccccc1CN(C)C	x	i
100	CCOc1ccc(NC(=O)CSC(N)=O)cc1	>57	i

(next part)
item	structure	Bst PK mod	TsaE inh
101	CCOC(=O)C1=C(CNCc2ccccc2Cl)NC(=O)NC1c1ccc2c(c1)OCO2 (stereo not drawn)	>57	i
102	Cc1ccc(C(=O)c2cncc(Br)c2)cc1	>57	i
103	Cc1ccc(C(=O)NC2CCCCCC2)cc1N1CCCC1=O	>57	i
104	CCn1c(=O)cc(SCC(=O)N2CCN(c3ccccc3OC)CC2)c2ccccc21	>57	i
105	COc1ccc2[nH]c(=O)c(CN(CC3CCCO3)C(=O)Nc3ccc(F)cc3)cc2c1 (stereo not drawn)	i	i
106	O=C(Cn1nc(-c2ccccc2)ccc1=O)NCc1ccc2c(c1)OCO2	>57	i
107	c1csc(CNc2ncnc3ccc(-c4ccc5c(c4)OCO5)cc23)c1	x	i
108	NS(=O)(=O)c1ccc(NC(=O)N[C@@H](Cc2ccccc2)C(=O)O)cc1	>57	i
109	CCN(CC)S(=O)(=O)c1ccc(NC2c3ccccc3C(=O)N2CCN2CCOCC2)cc1 (stereo not drawn)	x	i
110	CCOc1ccc(-n2ccnc2SCC(=O)Nc2nnc(C)s2)cc1	>57	i
111	COc1ccc(-c2nc(-c3ccccc3OC)no2)cc1OC	i	i
112	Cc1cccc(CNc2ccnc(-c3cccnc3)n2)c1	x	i
113	O=C(O)CCc1ccc(-c2cccs2)n1Cc1ccco1	>57	i
114	CCOc1ccc(C2CC(c3ccc(F)cc3)n3ncnc3N2)cc1 (stereo not drawn)	x	i
115	Cc1cc(C)c2c(n1)nn1c(N3CCN(c4ccccc4C)CC3)cc(C)nc21	>57	i
116	CCOc1ccc(OCC)c(NC(=O)C(NS(=O)(=O)c2ccc3c(c2)oc(=O)n3C)C(C)C)c1 (stereo not drawn)	>57	i
117	O=c1[nH]c2ccccc2nc1Cc1ccccc1	>57	i
118	Nc1c(Cl)cc(Cl)cc1Cl	x	i
119	Cc1nn(CC(O)Cn2c3c(c4ccccc42)CCN(C)C3=O)c(C)c1Br (stereo not drawn)	x	i
120	CCC(c1nnnn1C1CCCC1)N1CCN(c2ccccc2)CC1 (stereo not drawn)	>57	i
121	Cc1nn2c3ccccc3nc2c2ccccc12	u	i
122	O=C1c2ccccc2C(=O)N1CCCc1nc(-c2cccnc2)no1	>57	i
123	Nc1nonc1C(=O)NCCNCc1ccccc1OCc1ccccc1F	>57	i
124	CCCCCOC(=O)c1[nH]c2c(c1C)C(=O)CC(c1ccco1)C2 (stereo not drawn)	x	i
125	O=C1CN(C(=O)c2cccs2)c2ccccc2N1	>57	i

(more compounds)
item	structure	Bst PK mod	TsaE inh
126	CC1=CCC2C(=O)N(c3nc4ccccc4n3C)C(=O)C2C1 (stereo not drawn)	>57	i
127	O=C(CSc1nnc(Cc2ccccc2)n1-c1cccc(Cl)c1)N1CCOCC1	>57	i
128	Cc1ccc(-c2nn(C)c(=O)c3ccccc23)cc1S(=O)(=O)NCCN1CCOCC1	>57	i
129	O=C(Cn1nc(C(F)(F)F)c2c1CCCC2)Nc1ccc2c(c1)OCO2	>57	i
130	CCn1c(=N)c(C(N)=O)cc2c(=O)n3cccc(C)c3nc21	>57	i
131	CC(C)OCCCNS(=O)(=O)c1ccc2c(c1)oc(=O)n2C	x	i
132	O=C(C1CCCN(S(=O)(=O)c2cccs2)C1)N1CCc2ccccc2C1 (stereo not drawn)	>57	i

Only part of the results is shown, so the mix of outcomes need not match the whole.
